Vaccinia Venus – qHTS for Stage-Specific Inhibitors of Vaccinia Orthopoxvirus: Venus Reporter Primary qHTS; Vaccinia virus Venus reporter expression, fluorescence; Potency, µM (highest dose often 36.5 µM), without a hit: at the top dose activity change, negative = inhibition, hits mostly inhibitors; 330,000 compounds, 0.46% hits; AID 720580, 2013; active means well fitted inhibition curve with a large enough effect; inconclusive means small, poorly fitted or top-dose-only effect; inactive means no such curve, though single readings can be large or run the other way; tested in A549 cells; further: nearly all actives have a fitted effect of over 30% in size; inactives centre near -10
VACV mCherry inh – qHTS for Stage-Specific Inhibitors of Vaccinia Orthopoxvirus: mCherry Reporter Primary qHTS; Vaccinia virus mCherry reporter infection, fluorescence; about a quarter of the inactives have no number; Potency, µM (doses to about 36.5 µM), for inactives: at the top dose activity change, negative = inhibition, usual class: inhibitors; 310,000 compounds, 0.63% hits; active = well fitted inhibition curve with a large enough effect; inconclusive = small, poorly fitted or top-dose-only effect; inactive = no such curve, though single readings can be large or run the other way; tested in A549 cells; further: nearly all actives have a fitted effect of over 35% in size; inactives centre near -10
An asterisk follows results filed as active; i = inactive; ? = inconclusive; / = not tested or not shown. On the % scale 0 is the no-effect control and ±100 the full control effect; potency means the concentration at half of the fitted maximal effect. Random draw from the library; 0.87% or so of the library scored in one or more.

Values in the order: Vaccinia Venus	VACV mCherry inh
(1) CC1Oc2ccccc2C=C1C1/C(=C(/O)c2ccccc2)C(=O)C(=O)N1CCCN(C)C (centres undefined)
    2%	-7%
(2) CCOC(=O)/C=C/c1cc(F)ccc1O
    -16%	-28%
(3) O=C(c1cc([N+](=O)[O-])cc([N+](=O)[O-])c1)N(Cc1nnc(-c2ccccc2Cl)o1)C1CC1
    -23%	-19%
(4) COc1cc(OC)c(NS(=O)(=O)c2cc(-c3cnc(C4CC4)o3)ccc2C)cc1Cl
    -10%	?
(5) CC#CCN1c2ccccc2[C@]23C[C@@H](C(=O)OC)N(C(=O)NC(C)(C)C)C2=NC(C(=O)OC)=C(C(=O)OC)[C@H]13
    -10%	i
(6) COc1cc(C)ccc1OCCOCCOc1ccc(C)cc1[N+](=O)[O-]
    -11%	i
(7) CCC(=O)N1c2ccc(S(=O)(=O)CCC(=O)N3CCn4c3nc3ccccc34)cc2CC1C (centres undefined)
    3%	-6%
(8) O=C(Nc1ccc2c(c1)CCC2)c1cc(S(=O)(=O)N2CCN(c3ccccc3)CC2)ccc1Cl
    -11%	-22%
(9) CCOc1ccc(-c2nc(CS(=O)(=O)CC(=O)NCc3ccc(F)cc3)c(C)o2)cc1
    -13%	i
(10) O=C(Cn1c(=O)oc2ccccc21)NC(=O)NCc1ccccc1
    -10%	/
(11) COc1ccc(O)c(C(=O)c2cnn(C(=O)c3cccc(N(C)C)c3)c2)c1
    -9%	-24%
(12) Cc1c(NC(=O)c2sc3c([N+](=O)[O-])cccc3c2Cl)cccc1-c1nc2ccccc2o1
    -17%	-14%
(13) Cc1oc(C(=O)Nc2ccc(O)cc2)cc1COc1ccccc1
    -17%	-24%
(14) Cc1ccc(CNc2nc(CN3CCSCC3)nc3ccccc23)o1
    -8%	-18%
(15) O=C(CCC(=O)NNC(=O)COc1ccc(Br)cc1)NCc1ccccc1
    -11%	-1%
(16) O=C(CCCCCN1C(=O)c2ccccc2C1=O)Oc1ccc2c3c(c(=O)oc2c1)CCC3
    -15%	0%
(17) O=C(C1CCN(S(=O)(=O)c2cccc3nsnc23)CC1)N1CC=C(c2ccccc2)CC1
    -23%	-3%
(18) Cc1ccc2nc(SCC(=O)Nc3ccccc3N3CCOCC3)c(C#N)cc2c1
    ?	?
(19) C#CCOc1c(Cl)cc(/C=N/O)cc1OC
    -16%	0%
(20) CCC(=O)N1CCc2cc(CNC(=O)c3ccc(C#N)cc3)ccc21
    -6%	-11%
(21) CCCCn1c(SCC(=O)Nc2ccc(NC(C)=O)cc2)nc2ccccc2c1=O
    -18%	i
(22) O=C(OCC(=O)N(CCc1ccccc1)Cc1ccccc1)c1cc(S(=O)(=O)N2CCOCC2)ccc1F
    -10%	-9%
(23) CCCCCCCCN1C(=O)[C@H](CC(=O)N2CCSCC2)C[C@@]2(C(=O)OC)CCCCC=C12
    -11%	-16%
(24) CCc1ccc(-c2ccc(SCC(=O)NC3CCCC3)nn2)cc1
    -8%	-14%
(25) COc1ccccc1C(CC(=O)c1ccccc1)C(=O)c1ccccc1 (centres undefined)
    -11%	-8%
(26) O=C(Nc1noc2ccccc12)c1ccc(F)cc1
    -1%	-3%
(27) O=C(CSc1nnc2ccc(-c3ccccn3)nn12)Nc1ccc(F)cc1
    -14%	-16%
(28) Cc1nn(C(C)C(=O)Nc2cccc(F)c2)c(=O)c2c1sc1ccccc12 (centres undefined)
    -5%	i
(29) O=C(NC(=S)Nc1cc(C(F)(F)F)ccc1N1CCOCC1)c1ccc(-c2cccc(Cl)c2)o1
    -6%	-12%
(30) O=C1[C@H]2[C@@H](c3ccc(C(F)(F)F)cc3)N[C@]3(CCCN(Cc4ccc(Br)cc4)C3=O)[C@H]2C(=O)N1Cc1ccccc1
    ?	?

An excerpt from above in order of SMILES length, lowest first:
Values in the order: Vaccinia Venus	VACV mCherry inh
(26) O=C(Nc1noc2ccccc12)c1ccc(F)cc1
    -1%	-3%
(25) COc1ccccc1C(CC(=O)c1ccccc1)C(=O)c1ccccc1 (centres undefined)
    -11%	-8%
(20) CCC(=O)N1CCc2cc(CNC(=O)c3ccc(C#N)cc3)ccc21
    -6%	-11%
(18) Cc1ccc2nc(SCC(=O)Nc3ccccc3N3CCOCC3)c(C#N)cc2c1
    ?	?
(30) O=C1[C@H]2[C@@H](c3ccc(C(F)(F)F)cc3)N[C@]3(CCCN(Cc4ccc(Br)cc4)C3=O)[C@H]2C(=O)N1Cc1ccccc1
    ?	?

Later entries:
Values in the order: Vaccinia Venus	VACV mCherry inh
(31) CSc1ccc(CN2CCC2(C)C(=O)Nc2cnc3ccccc3c2)cc1 (centres undefined)
    -6%	-8%
(32) NS(=O)(=O)c1ccc(NNC(=O)c2cccs2)cc1
    -5%	?
(33) COc1ccc(S(=O)(=O)Nc2ccccn2)cc1C(=O)Nc1ccccc1
    -7%	-11%
(34) CC(C)CCNC(=O)CN(C)S(=O)(=O)c1cccc2nsnc12
    0%	-5%
(35) CCOC(=O)[C@]12Cc3cc(Cl)ccc3[C@H]1N(C1CCCCC1)C(=O)c1cc(OC)ccc12
    3.5µM*	?
(36) O=c1c2c3c(sc2n(Cc2ccc(F)cc2Cl)c(=O)n1-c1ccc(Cl)cc1)CCC3
    -4%	-12%
(37) CCn1c(=O)cc(SCC(=O)NCc2ccc(OC)cc2OC)c2ccccc21
    -2%	-11%
(38) O=C(COC(=O)CCSc1ccccc1)Nc1ccc(F)cc1Cl
    -10%	-1%
(39) COc1cc(C(C)=O)ccc1OCC(=O)N(CCC1=CCCCC1)c1c(N)n(Cc2ccccc2)c(=O)[nH]c1=O
    -5%	-15%
(40) COc1ccc(NC(=O)c2ccc(NC(=O)CN3CCC(C(N)=O)CC3)cc2)cc1
    -2%	i
(41) Cc1ccc([C@H]2C[C@H](O)[C@@H](n3cc(C4CC4)nn3)CN2CC2CCCCC2)cc1
    -13%	0%
(42) COc1cccc(NC(=O)c2cccc(C)c2[N+](=O)[O-])c1
    -10%	-6%
(43) O=C(O)C1(Nc2ccccc2Cl)CCCC1
    -11%	-3%
(44) COc1ccc(NC(=O)c2ccc(-c3ccccc3)cc2)cc1S(=O)(=O)N1CCOCC1
    -29%	?
(45) O=C(O)C1(c2ccc(Cl)cc2)CCC1
    -7%	/
(46) CC(C)OC(=O)c1cc(NC(=O)C2C3C=CC(O3)C2C(=O)O)cc(C(=O)OC(C)C)c1 (centres undefined)
    -11%	-10%
(47) CCN1CCN(C(=O)c2ccc3c(c2)N(Cc2ccccc2F)C(=O)c2ccccc2S3=O)CC1 (centres undefined)
    -6%	2%
(48) COc1ccc(C(N)c2csc(Nc3ncccn3)n2)cc1 (centres undefined)
    -2%	23%
(49) CCN(c1ccc(OC)cc1)c1ncnc2nc[nH]c12
    -12%	-14%
(50) COc1ccc(NC(=O)Cc2c(C)n(C(=O)c3ccc(Cl)cc3)c3ccc(OC)cc23)cc1
    0%	-14%
(51) CCOC(=O)C1=C(C)N=c2s/c(=C/c3ccccc3)c(=O)n2C1c1ccc(OC)c(OC)c1 (centres undefined)
    6%	/
(52) Cc1cc(C)c(-c2csc(NC(=O)COC(=O)c3ccc4c(c3)OCO4)n2)c(C)c1
    -17%	?
(53) COc1ccc(S(=O)(=O)NCCOc2ccccc2)cc1OC
    -3%	-7%
(54) C=CCn1c(O)c(N=Nc2c(C)n(C)n(-c3ccccc3)c2=O)c(=O)[nH]c1=S
    -4%	-4%
(55) COc1cccc(NC(=O)C2CCC(CNS(=O)(=O)c3cccs3)CC2)c1 (centres undefined)
    -24%	i
(56) Nc1cc(=O)n(Cc2ccccc2)c(=O)n1Cc1ccccc1
    -13%	-7%
(57) CC(C)OCC1Cn2c(nc3c2c(=O)n(C)c(=O)n3C)O1 (centres undefined)
    -5%	-29%
(58) Cc1ccc(NC(=O)CN2CCCCCC2)cc1Br
    -6%	-12%
(59) CC(=O)Oc1ccc(Cn2c(C)c(C(=O)NCc3ccc(C#N)cc3)sc2=O)cc1
    -17%	18%
(60) CC(C)n1cnc2c(NCc3ccccc3)cc(N[C@H](C)CO)cc21
    14µM*	?

Entries of single compounds, quoted from the list:
`CCCCCCCCN1C(=O)[C@H](CC(=O)N2CCSCC2)C[C@@]2(C(=O)OC)CCCCC=C12` as listed: Vaccinia Venus: -11%; VACV mCherry inh: -16%
`CC#CCN1c2ccccc2[C@]23C[C@@H](C(=O)OC)N(C(=O)NC(C)(C)C)C2=NC(C(=O)OC)=C(C(=O)OC)[C@H]13` as listed: Vaccinia Venus: -10%; VACV mCherry inh: i

Continued.
Values in the order: Vaccinia Venus	VACV mCherry inh
(61) CCCc1c(C(=O)N2CCN(c3ccccc3OC)CC2)cnn1-c1ccccc1
    -28%	-18%
(62) COCCn1c(C)cc(/C=C(\C#N)C(=O)OCC(=O)Nc2ccc(S(N)(=O)=O)cc2)c1C
    -1%	i
(63) O=C(Cc1ccccc1[N+](=O)[O-])OCC(=O)c1c[nH]c2ccccc12
    -12%	i
(64) C/C(=N\NC1=NCCN1)c1ccccc1
    -11%	-5%
(65) Cc1cc(C)c2nc(C)cc(Nc3ccc(C(=O)NCCO)cc3)c2c1
    -15%	-7%
(66) O=C(Nc1ccc(F)c(Cl)c1)c1csc([C@@H]2O[C@H](CO)[C@H](O)[C@H](O)[C@H]2O)n1
    0%	9%
(67) CC(=O)NC(CCS(C)(=O)=O)C(=O)N1CCc2ccccc21 (centres undefined)
    -11%	-13%
(68) O=C(O)CNc1nc(Cl)ccc1[N+](=O)[O-]
    -13%	-1%
(69) CC1C(=O)N(Cc2cn(CCC3OCCCO3)nn2)CCS(=O)(=O)N1Cc1ccc(-c2cccc(CO)c2)cc1 (centres undefined)
    -16%	0%
(70) COc1ccc(N2CCN(C(=O)CN(c3ccccc3)S(C)(=O)=O)CC2)cc1
    -24%	-27%
(71) CCOc1ccccc1N1CC(c2nc3ccccc3n2CCCCOc2ccccc2)CC1=O (centres undefined)
    -5%	-14%
(72) O=c1oc2ccccc2cc1-c1ccc(O)cc1
    -18%	0%
(73) COc1cccc(C(=O)Nc2ccc(NC(=O)C(C)C)nc2)c1
    2%	-6%
(74) CCN1CCC(N(Cc2cccc(OC)c2)C(=O)Nc2cccc(C)c2C)CC1
    -11%	-12%
(75) CCN(CC)S(=O)(=O)c1ccc2c(c1)N(CC(=O)Nc1cccc(C)c1C)C(=O)C1CCCN21 (centres undefined)
    -5%	-7%
(76) C/C=C(\C)CN1CCC(n2nccc2NC(=O)c2ccc(OC)cc2)CC1
    -2%	-13%
(77) CCCCC(=O)N(C)c1c(CC)nc2c(OCC=C(C)C)cccn12
    2%	13%
(78) O=C(CSc1ccccc1)NCCSCc1ccccc1
    -9%	-5%
(79) Cc1ccc(NC(=O)N2CCCC2C(=O)Nc2ccc3c(c2)OCCO3)cc1 (centres undefined)
    -15%	-19%
(80) CSc1ncccc1C(=O)OCC(=O)c1ccc(C)s1
    -4%	i
(81) Cc1cc2nnc(SCC(=O)N3CCOCC3)n2c2ccccc12
    3%	-8%
(82) C[C@H](CO)N1C[C@H](C)[C@@H](CN(C)Cc2ccc3c(c2)OCCN3C)OCc2cnnn2CCCC1=O
    -14%	i
(83) COCCNc1nc(NCc2cccc(Cl)c2)c2cnn(C)c2n1
    -18%	-29%
(84) CN(C)CCCN1c2ccccc2Sc2ccc(Cl)cc21
    ?	?
(85) CCc1nc2ccccc2n1Cc1ccccc1OC
    -18%	/
(86) COc1ccc(O)c(CNn2c(-c3ccc(Br)cc3)nc3ccccc3c2=O)c1
    -5%	-21%
(87) CC(=O)Oc1ccc(/C=C/c2cc(OC(C)=O)cc(OC(C)=O)c2)cc1
    3%	-13%
(88) CCn1nnnc1SCC(=O)N1CCc2ccccc21
    -21%	-16%
(89) CC(=O)Nc1cccc(-c2cc(C)c3cc4c(cc3n2)OCO4)c1
    -24%	-26%
(90) O=C(Nc1ccccc1N1CCCCC1)c1cnccn1
    -16%	i
(91) COc1cccc(N(CC(=O)NC2CC3CCC2C3)S(=O)(=O)c2ccccc2)c1 (centres undefined)
    -13%	-18%
(92) N#Cc1ccc[n+](CC(=O)c2ccc(O)c(O)c2)c1
    5%	11%
(93) Cc1[nH]nc2c1C(c1cccs1)C1=C(CCCC1=O)N2 (centres undefined)
    -13%	-11%
(94) CC(=O)Oc1ccc2c(=O)c(N3C(=O)c4ccccc4C3=O)c(C)oc2c1
    3%	-16%
(95) COc1ccc(Br)cc1/C=C/C(=O)Nc1ccc(C)cc1
    -29%	?
(96) CCN(Cc1ccccc1)S(=O)(=O)c1ccc2c(c1)CC(C)N2C(=O)C1CCC1 (centres undefined)
    -11%	-13%
(97) O=C(Nc1ccc2c3c(cccc13)CC2)c1ccco1
    -2%	/
(98) COc1cc(CNC(=O)CCC(=O)N2C[C@H]3C[C@H](C2)c2cccc(=O)n2C3)cc(OC)c1OC
    3%	-5%
(99) O=C(CNC(=O)C12CC3CC(CC(C3)C1)C2)OCC(=O)N1CCCCC1
    -12%	-22%
(100) O=C(c1ccc2c(c1)OCO2)N1CCc2ccccc21
    -2%	?
(101) NC(=O)c1ccsc1NC(=O)C1CCN(S(=O)(=O)c2cccs2)CC1
    -16%	-9%
(102) Cc1ccc2c(COC(=O)C34CC5CC(CC(C5)C3)C4)cc(=O)oc2c1
    -7%	i
(103) O=C(Nc1ccccc1F)C(c1ccccc1)c1ccccc1
    -15%	-22%
(104) CN(C)/C=N/c1nc2ccc3c(c2s1)CCCC3
    -13%	0%
(105) COC(=O)c1sccc1NC(=O)COc1ccc(Cl)cc1
    -11%	-14%
(106) COc1ccc(C(=O)N/N=C/c2ccc(OC)c(COc3c(F)c(F)cc(F)c3F)c2)cc1
    -12%	?
(107) O=C(NCCN1CCN(C(=O)c2ccc(F)cc2)CC1)c1ccc(F)cc1
    -6%	-13%

High-throughput results deposited in PubChem BioAssay by National Center for Advancing Translational Sciences (NCATS).
